Screens from PubChem.
TRPML1 inh = qHTS for Inhibitors of the Human Mucolipin Transient Receptor Potential 1 (TRPML1); Mucolipin-1 (Homo sapiens), Q9GZU1; TRPML1-inducible cells, Ca2+ dye fluorescence, FDSS; active compounds read low; inhibition of EC80 agonist-evoked calcium signal; activity change, negative = inhibition, % (concentration not given with the values); actives 0.02% (n = 390,000); in the data active means activity change below about -50%; inconclusive means about -30% to -50%; inactive means above about -30%;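 note: stimulus is agonist 54-4 at its EC80 concentration; % is set by controls: 0 for no effect and ±100 for the full control effect; the text of the record puts the active cut at -80%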
Target sequence (Q9GZU1 whole entry, looked up): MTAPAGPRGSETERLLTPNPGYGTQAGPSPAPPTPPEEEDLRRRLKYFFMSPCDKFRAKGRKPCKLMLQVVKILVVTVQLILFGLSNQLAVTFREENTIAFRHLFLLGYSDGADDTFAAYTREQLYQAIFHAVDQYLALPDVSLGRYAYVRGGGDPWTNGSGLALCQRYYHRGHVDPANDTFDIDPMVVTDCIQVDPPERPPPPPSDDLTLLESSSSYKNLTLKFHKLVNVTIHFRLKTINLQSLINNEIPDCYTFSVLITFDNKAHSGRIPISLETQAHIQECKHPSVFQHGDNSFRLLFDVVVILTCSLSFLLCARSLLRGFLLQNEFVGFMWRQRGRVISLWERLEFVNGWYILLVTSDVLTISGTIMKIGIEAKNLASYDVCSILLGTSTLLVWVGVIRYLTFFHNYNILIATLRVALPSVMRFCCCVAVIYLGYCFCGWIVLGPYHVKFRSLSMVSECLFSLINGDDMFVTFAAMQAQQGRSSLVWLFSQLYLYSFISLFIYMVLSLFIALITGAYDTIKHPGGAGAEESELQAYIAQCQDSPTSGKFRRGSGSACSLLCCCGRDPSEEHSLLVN
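Tet-induced TRPML1-DL cells loaded with Ca8 no-wash calcium dye were read kinetically on FDSS. Compound addition was followed by EC80 agonist 54-4 (4 uM final); inhibition was read over 110 s.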
Menin MLL FP FL = qHTS Assay for Inhibitors Targeting the Menin-MLL Interaction in MLL Related Leukemias: Competition With Fluorescein Labeled MLL-derived Peptide; 290,000 tested, under 10 active; FP activity change, % at 61.4 µM; Fluorescence polarization, fluorescein-MLL peptide displacement from menin; inconclusive = falling polarisation curve, or a change in total fluorescence; inactive = total fluorescence flat and polarisation flat or rising; no compound was filed as active; the % refers to the polarisation; negative = inhibition;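 note: % of control where 0% means no effect; inhibitors lower the polarisation; unlabelled MLL peptide was the positive control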
PINK1 expr mod = A Quantitative High throughput Screen to Identify Chemical Modulators of PINK1 Expression; PINK1 immunofluorescence, high-content cytometry, 24 h; Potency, µM (doses to about 76.6 µM), for the others: top-dose activation (PINK1 increase), most hits filed as activators; actives 0.2% (n = 410,000); AID 624263, 2012; active = well fitted activation curve with a large enough effect; inconclusive = small, poorly fitted or top-dose-only effect; inactive = flat fitted curve, though single readings scatter; cell line not stated here;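 note: potency is the fitted concentration of half-maximal effect; % of control where 0% means no effect; nearly all actives have a fitted effect of over 65% in size; a mitochondrial uncoupler was the plate control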
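Stable cell line, 250 cells/well, 12 h attachment; compounds pinned at 5 concentrations, 24 h; CCCP control. Fixed with nuclear dye, primary antibodies 12 h at 10 degrees C, secondary plus cell stain; laser-scanning cytometer read.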
Sfp inh = qHTS Assay for Inhibitors of Bacillus subtilis Sfp phosphopantetheinyl transferase (PPTase); 4'-phosphopantetheinyl transferase ffp (Bacillus subtilis), Q9F4F7; Biochemical Sfp PPTase activity, qHTS; Potency, µM, for the others: max response, negative = inhibition, actives largely listed as inhibitors; actives 3.5% (n = 310,000); active = well fitted inhibition curve with a large enough effect; inconclusive = small, poorly fitted or top-dose-only effect, or another doubt; inactive = no such curve, though single readings can be large or run the other way;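 note: the enzyme is Sfp with the accession as filed and its product quenches rhodamine fluorescence; potency is the fitted concentration of half-maximal effect; 0% = enzyme reaction without inhibitor and -100% = no enzyme wells; top concentration of the series not given in the record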
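Step 1, compound plus 15 nM Sfp-PPTase, 15 min, room temperature. Step 2, add rhodamine-CoA (5 uM) and BHQ-2-YbbR (12.5 uM). Step 3, read 525/598 nm fluorescence at 0 and 30 min.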
ClpP mod = qHTS Assay for Activators of ClpP; AID 651965, 2013; purified B. subtilis ClpP, FRET peptide cleavage, 20 min; Potency, µM (series often up to 57.5 µM), without a hit: top-dose activity change, negative = active; actives 1.9% (n = 340,000); ATP-dependent Clp protease proteolytic subunit (Bacillus subtilis (strain 168)), P80244; active = well fitted falling curve with a large enough effect; inconclusive = small, poorly fitted or top-dose-only effect; inactive = no such curve, though single readings can be large or run the other way; note: potency is the fitted concentration of half-maximal effect; the source files actives as falling curves though it sought activators and does not explain the sign; nearly all actives have a fitted effect of over 65% in size; many hits overshoot -100%
Target sequence (P80244 whole entry, looked up): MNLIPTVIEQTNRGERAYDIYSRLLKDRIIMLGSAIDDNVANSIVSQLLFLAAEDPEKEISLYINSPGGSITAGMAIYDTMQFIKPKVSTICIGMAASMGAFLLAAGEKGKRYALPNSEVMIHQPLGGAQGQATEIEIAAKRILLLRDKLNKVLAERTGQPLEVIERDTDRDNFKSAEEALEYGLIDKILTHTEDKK
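ClpP 10 microg/mL final, pH 8 Tris/KCl buffer with BSA, glycerol, Tween-20; compound pinned in; FRET-FV substrate; RT 20 min; Ex320/Em430; ΔFRET vs ADEP 5.8 microM, DMSO, no enzyme.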
TRPML1 ag = qHTS for Agonists of the Human Mucolipin Transient Receptor Potential 1 (TRPML1) | Mucolipin-1 (Homo sapiens), Q9GZU1 | TRPML1-expressing cells, Ca2+ dye fluorescence, FDSS; host cell line not named in the record; reference of the full effect not given here | activation, % (no concentration beside the values) | actives 0.12% (n = 410,000) | AID 624414, 2012; in the data active = activation above about 50%; inconclusive = about 30% to 50%; inactive = below about 30%; note: 0% is about no effect; the text of the record puts the active cut at 80%
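Agonist activity was taken from a 110 s kinetic Ca2+ dye read on the FDSS after pinning compounds onto TRPML1-DL cells. The cells were seeded at 1,500/well with Tet inducer, incubated about 16 h, then dye-loaded at room temperature.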
TRPV1 potentiator = HTS Assay for Compounds that Act as Potentiators of the Vanilloid Receptor 1. Transient receptor potential cation channel subfamily V member 1 (Homo sapiens), Q8NER1. actives 0.02% (n = 320,000). AID 540277, 2011. TRPV1-expressing cells, Fluo-8 calcium influx, capsaicin EC20 potentiation; host cell line not named in the record; control for the full effect not named in the record. potentiation, % at 8.33 µM; active means potentiation above 80%; inconclusive means 30% to 80%; inactive means below 30%; note: 0% is about no effect
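Fluo-8 calcium influx in TRPV1-expressing cells, kinetic read (ex 480/em 520 nm). Compound added and read 3 min for agonist activity, followed by capsaicin at EC20 final and 2 min further read for enhancement.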
* marks the source's active call; other numbers are inactive results; ? = inconclusive; . = not tested or not shown; & = joins results of further samples; [ ] = remark or other dose.

SMILES | TRPML1 inh | Menin MLL FP FL | PINK1 expr mod | Sfp inh | ClpP mod | TRPML1 ag | TRPV1 potentiator
CSC(=Nc1ccccc1)C(C#N)c1nc2ccccc2[nH]1 (configuration not stated) | 3.1 | 2.7 | 15.9% | -16.5% | 1.2% | 2.4 | -12.6
COc1cc(C(=O)OC(C)C(=O)N2CCc3ccccc3C2)ccc1OCC(=O)N1CCOCC1 (configuration not stated) | -5.5 | 1.3 | -0.1% | 9.0% | -8.7% | -0.3 | -10.3
CN(C)Cc1ccccc1-c1cc(NC2CC2)ncn1 | . | -4.5 | -0.1% | -10.8% | . | . | .
NC(=O)C1CCCN(S(=O)(=O)c2ccc(Br)cc2)C1 (configuration not stated) | 39.5 | 5.1 | -0.3% | -9.8% | 1.5% | 0.1 | -14.8
CC(=O)Nc1cccc(C(=O)Nc2ccccc2C(=O)O)c1 | -11.0 | 2.4 | 1.3% | 5.3% | 0.6% | -0.8 | -14.0
Cc1ccc(NC(=O)Cc2nnc(SCC(=O)NC3CCCC3)n2C)c(C)c1 | -12.6 | 6.6 | -0.7% | 19.8% | . | 0.5 | 7.6
CN(CC1CCCO1)S(=O)(=O)c1ccc(C(=O)Nc2ccc(F)cc2)cc1 (configuration not stated) | 5.5 | . | 0.9% | 3.5% | 1.0% | 0.0 | -21.9
O=C(NN=Cc1ccc(N2CCOCC2)cc1)c1cc2ccccc2cc1O | -1.1 | . | 3.2% | . | 2.6% | 0.7 | .
CCN1C(=O)/C(=C/C=C2\C=CN(CC)c3ccccc32)SC1=S | -6.5 | ? | ? | 44.7µM* | 2.1% | -0.2 | 12.4
CC1CCCN(C(=O)c2ccc(NS(=O)(=O)c3cccc([N+](=O)[O-])c3)cc2)C1 (configuration not stated) | -5.7 | . | 1.9% | . | -0.6% | 1.3 | 4.9
CCOc1ccc(NC(=O)c2ccc3c(SCC(=O)O)c4c(nc3c2)CCCC4)cc1 | -5.9&10.8 | 1.5 | 0.8%&0.3% | 23.7% | 0.8%&-1.7% | 2.7&0.9 | -2.3
COc1ccccc1C(=O)CSc1nnc(-c2ccco2)o1 | -7.0 | 1.4 | -0.5% | -20.3% | 1.1% | 3.1 | 10.3
CN(C)S(=O)(=O)c1ccc(C(=O)OCCCN=C2NS(=O)(=O)c3ccccc32)cc1 | 12.8 | -3.6 | 1.5% | -9.7% | -1.4% | 0.1 | 13.0
Cc1ccc(C(=O)N2CCc3ccccc32)cc1[N+](=O)[O-] | 32.3 | -3.8 | 1.8% | 6.4% | . | -0.6 | 9.3
CC(=O)NC(Cc1cccc(C)c1)C(=O)NC1CCN(C(=O)NCc2ccccc2)CC1 (configuration not stated) | -4.9 | 0.2 | 2.0% | 9.8% | . | -0.3 | -0.1
O=C(COc1ccccc1Cl)OCC(=O)N1CCN(S(=O)(=O)c2ccccc2)CC1 | -12.0 | -1.4 | 3.4% | 16.6% | 0.9% | -0.1 | -1.1
CCc1ccc(-c2nc(CSCC(=O)N3CCN(c4ccccn4)CC3)c(C)o2)cc1 | 24.8 | 7.7 | 1.7% | -7.9% | -15.2% | 1.7 | -16.9
C[C@H](CO)N1C[C@H](C)[C@@H](CN(C)S(=O)(=O)c2cccs2)Oc2c(NC(=O)Nc3ccc4c(c3)OCO4)cccc2C1=O | -1.1 | . | 1.3% | . | 0.4% | -0.6 | .
Cc1cccc(NC(=O)NN2CCN(C)CC2)c1C | -1.2 | -1.2 | -0.7% | 7.1% | -2.2% | -0.2 | 3.5
COc1ccccc1C(=O)NCCSc1c(C)[nH]c2ccccc12 | 8.4 | . | 1.8% | . | -3.4% | 0.4 | .
N#CC1=C(N)Oc2n[nH]c(-c3cccs3)c2C1c1ccoc1 (configuration not stated) | -2.9 | 13.5 | -2.7% | -2.0% | 28.2µM* | 0.1 | ?
CC(C)(C)Cn1c(=O)[nH]c(=O)c2cc([N+](=O)[O-])cnc21 | -8.8 | -2.0 | 4.5% | -0.9% | -2.1% | 1.0 | -5.5
CCOC(=O)[C@]12CCCC=C1N(Cc1ccc(Cl)cc1Cl)C(=O)[C@H](CC(=O)NCc1cccc(C(F)(F)F)c1)C2 | . | . | 2.5% | . | -1.5% | 0.3 | .
CCOc1ccc(N2CC(=O)Nc3ccccc3NCC2=O)cc1 | 1.5 | 4.6 | 1.8% | 17.6% | -6.2% | -0.2 | 28.5
COc1ccccc1C(=O)Nc1ccnn1C1CCN(C2CCCCC2)CC1 | -12.8 | . | 4.8% | . | -4.5% | -0.5 | .
CC(C)OC(=O)c1cc2c(ccn2-c2ccc(F)cc2)n1CC(=O)N1CCN(C(=O)c2ccco2)CC1 | -21.0 | 3.8 | 0.8% | -17.2% | 3.2% | 0.3 | -3.8
NS(=O)(=O)c1ccc(CNC(=O)Cc2ccccc2[N+](=O)[O-])cc1 | -5.3 | 1.0 | 1.8% | 17.7% | 0.2% | 0.2 | -0.4
O=C1CC(SC(=Nc2ccccc2)Nc2ccccc2)C(=O)N1c1ccc(Cl)cc1 (configuration not stated) | -11.7 | -1.5 | 4.0% | 3.6% | 2.4% | 0.0 | -3.0
COc1ccc(CCNc2ccc(C(CC(N)=O)NC(=O)c3cc(C)cc(C)c3)cc2[N+](=O)[O-])cc1 (configuration not stated) | -12.7 | -3.3 | 0.3% | -4.7% | 0.5% | -0.4 | -2.1
Clc1ccc2nc3ccccc3cc2c1 | 9.2 | . | 0.0% | . | 4.2% | -0.3 | .
COc1cc(-c2cc(-c3ccccc3)nc(SCC(=O)O)c2C#N)cc(OC)c1OC | -11.2 | 3.8 | 2.1% | -17.8% | 0.9% | -1.4 | -2.2
O=C(C1CC(=O)N(c2ccc3c(c2)OCCO3)C1)N1CCCC(C(F)(F)F)C1 (configuration not stated) | 6.2 | . | 2.2% | . | 0.7% | -0.2 | -15.0
COc1cc(CNC(=O)c2cc(-c3ccc(OC)cc3C)n[nH]2)cc(OC)c1 | . | . | -1.1% | . | 0.8% | -1.0 | .
Cc1cc(C(=O)NCCCN2CCN(C3CCCCC3)CC2)n(-c2ccccc2)n1 | 3.2 | 2.0 | 1.0% | -12.2% | 0.3% | -0.1 | -2.3
COc1ccccc1CNC(=O)C1(C)CCN1Cc1ccc(OC(F)(F)F)cc1 (configuration not stated) | . | . | -1.3% | . | 1.1% | -0.4 | .
CN1C(=O)c2cccc3c(S(=O)(=O)NCc4ccco4)ccc1c23 | -3.0 | 1.7 | 1.3% | -19.3% | -2.5% | -1.1 | -10.2
COc1ccc(/C=N/n2cnc3c([nH]c4ccc(C)cc43)c2=O)cc1CN1CCCC1 | -7.1 | 11.7 | -2.0% | -3.8% | -3.0% | -0.5 | -5.3
Cc1ccccc1CC(=O)Nc1ccc2c(C)cc(=O)oc2c1 | -12.7 | -0.9 | 0.7% | 12.9% | -18.1% | -0.1 | -8.7
CC(C)C(C)NC(=O)COc1ccc(Sc2ccc(OCC(=O)NC(C)C(C)C)cc2)cc1 (configuration not stated) | -7.8 | -1.0 | 2.5% | -7.0% | -0.8% | 0.1 | 9.4
O=C(Cc1ccc(Cl)cc1)Nc1ncc([N+](=O)[O-])s1 | -4.3 | 3.8 | ? | -18.7% | . | -0.3 | -15.2
CCCSc1ncc(Cl)c(C(=O)N2CCN(c3ccc(OC)cc3)CC2)n1 | 29.1 | . | 0.0% | . | 1.4% | 3.1 | .
C=Cc1ccc(Cn2c(C)c(C(=O)NCc3ccc4c(c3)OCO4)sc2=O)cc1 | . | . | -0.4% | . | -2.6% | 2.0 | .
CCOC(=O)C1=CCN(S(=O)(=O)c2ccc(Cl)cc2)C1c1cccc(C)c1 (configuration not stated) | . | . | 3.4% | . | 1.6% | 1.8 | .
CC(C)(C)c1cc(CCC(=O)Nc2ccncc2)cc(C(C)(C)C)c1O | 5.8 | . | 0.4% | . | 1.2% | -0.1 | .
COc1ccccc1OCC(=O)Nc1ccc(Cl)cc1 | 7.2 | 0.5 | 27.8%[38.3 µM] | -1.5% | 1.6% | 0.1 | 1.0
CN(C)CCNC(=O)c1ccc2c(=O)n3c(nc2c1)CCCCC3 | 5.8 | . | 8.3% | . | -10.9% | 0.2 | .
Cc1cc(O)cc(C)c1Cl | 5.1 | -1.6&-3.0 | 2.1% | 20.9%&12.3% | -0.4% | 1.7 | .
Cc1onc(-c2c(Cl)cccc2Cl)c1C(=O)NCc1ccco1 | 2.1 | 3.0 | -0.4% | -0.6% | 2.2% | -0.7 | 1.7
Cc1ccc(Cl)cc1NC(=O)[C@@H]1CCC(=O)N1C1OC(=O)c2ccccc21 (some centres not stated) | . | 2.6 | 1.0% | 8.6% | 2.1% | . | 2.6
CCCc1nnc(NC(=O)CCC(=O)NC2CCCc3ccccc32)s1 (configuration not stated) | 7.2 | 0.8 | -1.2% | 5.6% | 1.9% | 0.8 | 0.3
(continued)
SMILES | TRPML1 inh | Menin MLL FP FL | PINK1 expr mod | Sfp inh | ClpP mod | TRPML1 ag | TRPV1 potentiator
Cc1cc(NC(=O)CN2C(=O)c3cccnc3Sc3ccccc32)ccc1Br | -20.5 | . | 0.6% | . | -8.1% | 1.1 | .
Nc1ccnn1Cc1cccnc1 | 1.3 | 3.9 | -1.0% | -0.9% | 0.6% | 0.8 | -9.1
O=C(NC(=S)NC1CCCCC1)c1ccccc1 | 9.5 | . | 9.2% | 5.5% | 1.1% | -0.3 | 0.9
CCOc1cccc2cc(C(=O)NCc3ccc(Cl)cc3)c(=N)oc12 | 13.8 | 5.9 | 4.9% | 1.7% | 2.4% | -0.4 | -1.1
O=C(Nc1cc(-c2nc3ccccc3o2)ccc1Cl)c1cc([N+](=O)[O-])ccc1N1CCOCC1 | -2.4 | . | 1.6% | . | 0.8% | -0.7 | .
CCOc1ccc(C(=O)CN2CCN(S(=O)(=O)c3ccc(Cl)cc3)CC2)cc1 | -17.6 | -0.1 | 0.0% | -5.1% | 2.2% | -0.2 | 20.2
O=C(O)CCCCCn1c(O)c(C=C2N=c3ccccc3=N2)sc1=S | -1.6 | ? | 1.7% | ? | -0.9% | 0.2 | 3.0
